MARV entry inh: inhibitors of Marburg virus binding or cell entry. 300,000 compounds, 1.8% hits. Marburg virus pseudotyped entry inhibition, cell reporter; control for the full effect not named in the record; about a third of the inactives were read at about 46 µM. AID 540276. Potency, µM (top dose mostly 37.8 µM), inactives show at the highest dose activity change, negative = inhibition, actives largely listed as inhibitors; active = well fitted inhibition curve with a large enough effect; inconclusive = small, poorly fitted or top-dose-only effect, or effect the other way; inactive = flat fitted curve, though single readings scatter; tested in HEK293 cells; about a fifth of its hits are not listed in these tables; also: % is scaled to controls: 0 for no effect and ±100 for the full control effect; luciferase read-out
2A StopGo: lowers the luciferase signal of an FMDV 2A StopGo reporter | human cells with a luciferase reporter of 2A StopGo recoding; control for the full effect not named in the record | Potency, µM (doses to about 57.9 µM), without a hit: top-dose signal change, negative = less light | 410,000 compounds, 1.2% hits | AID 1159524; active = well fitted falling curve with a large enough effect; inconclusive = small, poorly fitted or top-dose-only effect; inactive = no such curve, though single readings can be large or run the other way; tested in HEK293T cells; also: % is scaled to controls: 0 for no effect and ±100 for the full control effect; nearly all actives have a fitted effect of over 45% in size; luciferase light after 4 h
NS1 function inh: influenza NS1 inhibition. 270,000 compounds, 0.4% hits. Potency, µM (highest dose often 46.1 µM), without a hit: at the highest dose activity, positive = more growth. AID 2326. S. cerevisiae slowed by influenza A NS1, growth recovery by OD600; active means well fitted rising curve with a large enough effect; inconclusive means small, poorly fitted or top-dose-only effect; inactive means no such curve, though single readings can be large or run the other way; also: nearly all actives have a fitted effect of over 50% in size
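Growth recovery, yeast-based: influenza A NS1 expressed in S. cerevisiae causes slow growth, and suppressors are detected by OD600. The parent strain without NS1 is used as positive control.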
SARS PLpro yeast: inhibitors of SARS-CoV papain-like protease in yeast; Potency, µM (highest dose often 32.9 µM), for the others: at the highest dose activity, positive = growth rescue; S. cerevisiae expressing SARS-CoV PLpro, growth rescue; control for the full effect not named in the record; AID 485353; 330,000 compounds, 0.19% hits; active means well fitted rising curve with a large enough effect; inconclusive means small, poorly fitted or top-dose-only effect; inactive means no such curve, though single readings can be large or run the other way; also: 0% is about no effect; nearly all actives have a fitted effect of over 55% in size; growth read by luminescence after 48 h
Cruzain inh noDet: inhibitors of Trypanosoma cruzi cruzain without detergent; Potency, µM, inactives show max response, negative = inhibition, usual class: inhibitors; purified cruzain, Z-FR-AMC fluorescence, no detergent; AID 1476; 200,000 compounds, 2.3% hits;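 also: plate controls were enzyme without inhibitor for no effect and buffer without enzyme for full effect; nearly all actives have a fitted effect of over 40% in size; top concentration of the series not given in the record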
Target sequence (P25779 123-467 limits assumed): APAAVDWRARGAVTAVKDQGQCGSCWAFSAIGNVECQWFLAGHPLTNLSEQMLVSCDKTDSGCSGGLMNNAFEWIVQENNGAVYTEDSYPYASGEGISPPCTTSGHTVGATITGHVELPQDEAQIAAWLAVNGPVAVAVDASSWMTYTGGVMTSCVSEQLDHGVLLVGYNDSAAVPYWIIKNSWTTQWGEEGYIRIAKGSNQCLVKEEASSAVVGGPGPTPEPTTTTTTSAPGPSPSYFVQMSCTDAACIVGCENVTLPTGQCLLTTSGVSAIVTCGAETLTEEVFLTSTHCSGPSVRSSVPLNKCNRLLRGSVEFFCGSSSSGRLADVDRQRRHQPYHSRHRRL
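Purified cruzain at 1.5 nM, pre-incubated 15 min with compound at room temperature in 100 mM sodium acetate pH 5.5, 5 mM DTT, 0.00005% Triton X-100. Reaction started with 2 uM Z-FR-AMC; AMC fluorescence increase over 60 s gives rate.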
Lassa entry inh: Lassa virus entry inhibition; Lassa virus pseudotype entry inhibition, cell reporter; control for the full effect not named in the record; Potency, µM (doses to about 37.9 µM), for the others: at the highest dose activity change, negative = inhibition, most hits filed as inhibitors; 300,000 compounds, 1.2% hits; AID 540256; active means well fitted inhibition curve with a large enough effect; inconclusive means small, poorly fitted or top-dose-only effect, or effect the other way; inactive means flat fitted curve, though single readings scatter; tested in HEK293 cells; also: % is scaled to controls: 0 for no effect and ±100 for the full control effect; nearly all actives have a fitted effect of over 50% in size; luciferase read-out
RE007 growth inh: less growth of the S. pombe RE007 Vpr strain. S. pombe RE007 Vpr strain, BacTiter-Glo ATP luminescence, 24 h; control for the full effect not named in the record. Potency, µM (top dose mostly 92.2 µM), without a hit: at the top dose activity change, negative = less growth. 360,000 compounds, 0.21% hits; active = well fitted falling curve with a large enough effect; inconclusive = small, poorly fitted or top-dose-only effect; inactive = no such curve, though single readings can be large or run the other way;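 also: % is scaled to controls: 0 for no effect and ±100 for the full control effect; nearly all actives have a fitted effect of over 50% in size; the assay follows cell death caused by Vpr and the record does not say whether a fall means rescue or toxicity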
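Fission yeast strain RE007, carrying one chromosomally integrated HIV-1 vpr copy, was seeded at OD 0.01 in PMG+AL medium with 23 nL pinned compound. After 24 h at 30 °C and 99% humidity, viability was read by BacTiter-Glo luminescence.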
Cruzain inh Det: cruzain (T. cruzi) inhibition with detergent; Potency, µM, for the others: max response, negative = inhibition, usual class: inhibitors; AID 1478; 200,000 compounds, 0.43% hits; purified cruzain, Z-FR-AMC fluorescence, 0.01% Triton; P25779;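 also: plate controls were neutral wells for no effect and buffer without enzyme for full effect; nearly all actives have a fitted effect of over 40% in size; top concentration of the series not given in the record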
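Compounds were screened in titration against cruzain (1.5 nM) with 0.01% Triton X-100 to counter colloidal aggregation. Activity was the AMC fluorescence increase over 60 s after adding 2 uM Z-FR-AMC at pH 5.5.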
Starred values were filed as active, the others as inactive; ? = inconclusive; · = no result given; & = joins results of further samples; [ ] = dose if it differs, or a comment. Unless noted, calls follow the shape of the dose curve; as a rule, active = well fitted curve in the direction sought with a large enough effect; inconclusive = small, poorly fitted or top-dose-only effect, or another doubt; inactive = no such curve, though single readings can be large; an effect the other way counts as inactive or inconclusive. Potency is read from the fitted curve at half-maximal effect.

Results follow in this order: NS1 function inh	2A StopGo	MARV entry inh	Cruzain inh Det	Lassa entry inh	SARS PLpro yeast	RE007 growth inh	Cruzain inh noDet
- COc1ccc(CNC(=O)c2ccc(NS(=O)(=O)c3c(C)noc3C)cc2)cc1
→ ?	-21%	25%&25%	-12%	8%	3%	6%	-10%
- CC(C)(C)C(=O)Nc1nc(C2CCCN2S(=O)(=O)c2ccc(Cl)cc2)cs1 (stereo unspecified)
→ 3%	?	-14%	-0.6%	?	-6%	3%	1%
- CCOC(=O)N1CCC(NS(=O)(=O)c2ccc3c(c2)OCC(=O)N3)CC1
→ ?	37%[activator]	21%	3.7%	9%	-1%	6%	0%
- Cn1c2c(sc1=O)CCC2
→ ·	-12%	30%[46.1 µM]	·	22%[46.1 µM]	·	-5%	·
- OCCN1CCN(c2nc3ccccc3nc2-c2ccccc2)CC1
→ 3%	-9%	·	·	·	0%	10%	·
- Cc1cc(C)cc(Nc2c3c(nc4ncnn24)CCC3)c1
→ 0%	-11%	?	·	?	1%	13%	·
- COc1ccc(CNC(=O)c2ccc(CS(=O)(=O)c3ccc(C)cc3)o2)cc1
→ -15%	-20%	·	·	·	-3%	8%	·
- Cc1cccc(C(=O)NCC(=O)OCC(=O)c2ccc(Br)s2)c1
→ ·	-17%	-3%	·	0%	-3%	-11%	·
- CC1C(=O)Nc2ccc(S(=O)(=O)N3CCN(c4ccccc4F)CC3)cc2NC1=O (stereo unspecified)
→ -14%	?	·	·	·	2%	7%	·
- Cc1cccc2c(C(=O)N3CCN(c4ccccc4)CC3)cc(-c3ccncc3)nc12
→ -19%	-27%	?	·	?	-5%	-12%	·
- COc1cc2c(cc1OC)CN(C(C)C(=O)Nc1cccc(S(=O)(=O)N3CCOCC3)c1)CC2 (stereo unspecified)
→ ·	11%	-9%	·	-5%	-1%	-1%	·
- CCOC(=O)COn1c(=O)c(-c2ccccc2)[n+]([O-])c2ccccc21
→ -1%	-7%	4%[46.1 µM]	·	0%[46.1 µM]	2%	5%	·
- CC(=O)c1ccc(NC(=O)COC(=O)c2ccccc2Sc2ccccc2C#N)cc1
→ -6%	-24%	20%	-4.3%	?	?	18%	0%
- CC(=O)Nc1nc2c(C)cc(NC(=O)C3CCCCC3)cc2s1
→ -2%	66%[activator]	8%[46.1 µM]	·	?	-2%	-2%	·
- O=C1C(Cl)=C(N2CCN(Cc3ccccc3)CC2)C(=O)N1c1ccccc1
→ 4%	0%	15%	-26%	2%	-1%	-9%	-12%
- COc1ccc(OCC(=O)Nc2cccc(-c3nc4ccccc4s3)c2C)cc1
→ ·	?	-18%[46.1 µM]	1.5%	-24%[46.1 µM]	·	·	26%
- COc1ccc(C2NC(=O)C(C#N)=C(S)N2c2ccccc2)cc1OC (stereo unspecified)
→ 7%	3%	-3%[46.1 µM]	·	6%	-1%	12%	·
- COCCCNC(=S)NC1CC2CCCC(C1)N2Cc1cccs1 (stereo unspecified)
→ 3%	·	?	5.8%	?	2%	-18%	4%
- CCOC(=O)C1C(=O)CC(C)(O)C(C(=O)OCC)C1c1ccc(SC)cc1 (stereo unspecified)
→ 2%	-5%	·	·	·	1%	-8%	·
- Cc1nc(CSc2nnc3scc(-c4ccccc4)n23)cs1
→ -5%	5%	12%	4.0%	8%	3%	11%	1%
- CCOC(=O)c1cc(C#N)c(Nc2ccc(C)cc2)nc1C(F)(F)F
→ -4%	-7%	?	·	1%	0%	6%	·
- CN(Cc1ccccc1F)C(=O)CN1C(=O)NC2(CCc3ccccc32)C1=O (stereo unspecified)
→ ·	-9%	23%	·	7%	4%	-14%	·
- Cc1cc(C)c(OCCCNCc2ccccc2)c(Br)c1
→ -23%	-26%	·	·	·	-1%	?	·
- CC(=NCc1cccnc1)c1c(O)n(-c2ccc(Cl)cc2)c(=O)[nH]c1=O
→ 3%	57%[activator]	?	·	-13%	1%	1%	·
- CN(CCN1CCOCC1)C(=O)CC1C(=O)NCCN1Cc1ccccc1F (stereo unspecified)
→ 13%	-14%	13%	·	-5%	5%	-8%	·
- Cc1ccc(C(=O)OCC(=O)c2ccc(Cl)s2)s1
→ -6%	24%	12%	-5.3%	18%	1%	-1%	0%
- COCCNC(=O)[C@H]1N2C(=O)c3ccccc3C2SC1(C)C (stereo partly specified)
→ -1%	2%	·	·	·	0%	3%	·
- CNC(=O)c1ccc(Nc2nnc(-c3ccc(C)c(S(=O)(=O)N(C)C)c3)c3ccccc23)cc1
→ ·	-26%	·	-12%	-15%[46.1 µM]	·	·	?
- CCN(C(=O)c1cc2cc3ccc(OC)cc3nc2o1)c1cccc(C)c1
→ ·	-2%	-29%[46.1 µM]	-15%	?	·	·	9%
- CC(CN1CCN(c2ccccc2)CC1)c1ccccc1 (stereo unspecified)
→ -1%	26%	-12%	6.2%	1%	-13%	-10%	10%
- Cc1ccc(-c2ccc(OCC(=O)N3CCOCC3)cc2)cc1
→ -16%	18%	6%	6.8%	13%	-8%	-4%	?
- COC(c1ccccc1)(c1ccccc1)C(Oc1nccc(C)n1)C(=O)O (stereo unspecified)
→ 28%	-21%	3%	·	-13%	2%	-3%	·
- COc1cc2c(cc1NC(=O)COC(=O)CNS(=O)(=O)c1ccc(C)cc1)oc1ccccc12
→ -15%	53%[activator]	14%	-18%	15%	-18%	-1%	-6%
- O=C(NCc1ccccc1)N1CCC(c2nc3ccccc3[nH]2)CC1
→ -4%	-12%	-14%	3.3%	-1%	-6%	-23%	-23%
- Cc1cccc(NC(=O)c2ccccc2[N+](=O)[O-])n1
→ 2%	10%	0%	-1.9%	?	5%	3%	-8%
- Cc1ccc(CN(C(=O)c2ccccc2[N+](=O)[O-])c2ccccn2)cc1
→ ·	5%	7%[46.1 µM]	-3.8%	-11%[46.1 µM]	·	·	-9%
- CCc1ccccc1NC(=O)CSc1nnc(CC)c(CC)n1
→ ·	-2%	·	-0.3%	-2%[46.1 µM]	·	·	-3%
- Cc1ccc(Cl)cc1N1CCN(Cc2nc3ccsc3c(=O)[nH]2)CC1
→ -17%	?	?	-5.1%	-16%	-1%	17%	-2%
- Cc1n[nH]c(=O)nc1N/N=C/c1ccc(O)c([N+](=O)[O-])c1
→ 2%	13%	-4%	-1.0%	?	6%	-22%	3%
- CC1CC(C)CN(C(=O)COC(=O)c2cc(S(=O)(=O)N3CCOCC3)ccc2F)C1 (stereo unspecified)
→ ·	-11%	-4%	·	-6%[46.1 µM]	2%	-15%	·
- Fc1ccc(-c2csc(N3CCSCC3)n2)cc1
→ ·	26%	7%[46.1 µM]	·	5%	-1%	-13%	·
- CCC1(CC)Cc2ccccc2C(=C(C#N)C#N)N1
→ 5%	-18%	-10%	-5.1%	-3%	-2%	0%	-1%
- O=C(c1cc(=O)[nH]c2ccccc12)N1CCN(c2ccc([N+](=O)[O-])cc2)CC1
→ 2%	?	?	·	-30%	0%	5%	·
- CCCCn1c(=NC(=O)c2c(-c3c(F)cccc3Cl)noc2C)c(C(=O)OCC)cc2c(=O)n3ccccc3nc21
→ ·	3%	22%[46.1 µM]	0.2%	?	·	·	-4%
- Cc1nn(CCO)c2c1C(=O)CCC2
→ -3%	-13%	4%&4%[46.1 µM]	-0.7%	3%	7%	12%	14%
- CCn1c(=N)c(S(=O)(=O)c2ccccc2)cc2c(=O)n3ccccc3nc21
→ -3%	5%	-2%[46.1 µM]	·	2%	0%	1%	·
- Clc1ccc2c(NCc3ccco3)ncnc2c1
→ -93%	?	9%	1.0%	-9%	5%	3%	-16%
- CC(NS(=O)(=O)c1ccc([N+](=O)[O-])cc1)C(c1cccs1)N1CCOCC1 (stereo unspecified)
→ ·	-1%	13%	·	0%	4%	-6%	·
- O=C(NCC1CCCO1)c1cnc(Cl)c(Cl)c1 (stereo unspecified)
→ -5%	-1%	?	·	-11%[46.1 µM]	-1%	7%	·
- COc1ccc(NC(=O)c2cccc(S(=O)(=O)N3CCOCC3)c2)cn1
→ -4%	-4%	10%	4.4%	9%	6%	23%	-7%
- O=C(/C=C/c1ccc(O)c(O)c1)c1ccccc1O
→ -75%	21%	-22%	·	-13%	-3%	?	·
- Cc1ccccc1C(=O)N1CCC(C(=O)N2CCCc3ccccc32)CC1
→ ·	23%	-19%	·	-17%	-5%	13%	·
- COc1ccc(/C=C2/SC(=S)NC2=O)cc1OCc1ccccc1
→ 14%	-19%	-18%	·	-16%	0%	6%	·
- CN1CCN(S(=O)(=O)c2ccc(NC(=O)c3cccc(F)c3)cc2)CC1
→ -5%	6%	-5%	·	?	-1%	5%	·
- Cc1c(NC(=S)Nc2ccccc2C(F)(F)F)cccc1[N+](=O)[O-]
→ -5%	-21%	-2%	-2.0%	?	-11%	5%	3%
- O=C(c1ccc2c(c1)OCCO2)C1CCN(C(=O)c2ccc(F)cc2)CC1
→ -10%	?	-2%	1.2%	-18%	12%	4%	3%
- O=C(NCCSCc1ccco1)Nc1cc(Cl)cc(Cl)c1
→ -105%	34%[activator]	?	·	?	-17%	-15%	·
- COc1ccc(S(=O)(=O)n2ccc(C(C)Oc3ccc(-c4ccccc4)c(F)c3)n2)cc1 (stereo unspecified)
→ 7%	?	?	1.1%	?	-2%	-11%	-22%
- CCCN1CCN(S(=O)(=O)c2c(C)[nH]c(C)c2C(=O)N2CCCCC2)CC1
→ -6%	6%	-1%[46.1 µM]	·	18%[46.1 µM]	3%	-7%	·
- Cc1cccc(OCC(=O)Nc2ccc(C(=O)NCc3cccnc3)cc2)c1
→ 2%	·	·	4.7%	·	-3%	·	13%
